Source: PubChem BioAssay
NOMO-1 viab = STK33 inhibitor candidate reducing NOMO-1 cell viability. NOMO-1 AML viability, CellTiter-Glo luminescence, 72 h. inhibition, % (no concentration beside the values). actives 7.5% (n = 37,000). AID 2330;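 active means most replicates above 80%; inconclusive means exactly half above 80%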;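 further: wells of about 30 µL received 25 nL stock; 0% = median of vehicle wells and 100% = reference inhibitor level; the first replicate is given; inactives centre near 10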
* marks the source's active call; other numbers are inactive results; ? = inconclusive. The list is partial (hit frequency here may not be typical).

SMILES	NOMO-1 viab
C[C@H](CO)N1C[C@H](C)[C@H](CN(C)CC2CCCCC2)Oc2ccc(NC(=O)Nc3ccc(C(F)(F)F)cc3)cc2CC1=O	128*
C[C@H]1CN([C@@H](C)CO)C(=O)c2cccc(NC(=O)Nc3ccc(F)cc3)c2O[C@H]1CN(C)Cc1ccc2c(c1)OCO2	30
COc1ccc(-c2noc(CCCN3C(=O)c4ccccc4C3=O)n2)cc1OC	21
Cc1noc(C)c1NC(=O)N(C)C[C@H]1Oc2ccc(NS(=O)(=O)c3ccc(Cl)cc3)cc2C(=O)N([C@@H](C)CO)C[C@H]1C	8
COc1ccccc1NC(=O)CSc1nc(Nc2ccccc2)nc(Nc2ccccc2)n1	26
O=C(COc1ccc(F)cc1)Nc1cc(Cl)ccc1C(=O)O	25
C[C@H](CO)N1C[C@H](C)[C@@H](CN(C)Cc2ccc(-c3ccccc3)cc2)Oc2c(NC(=O)C3CC3)cccc2C1=O	89*
C[C@H]1CN([C@@H](C)CO)C(=O)c2cc(NC(=O)C3CCCCC3)ccc2O[C@H]1CN(C)C(=O)Nc1ccc(F)cc1	8
C[C@H]1CN([C@@H](C)CO)C(=O)c2cccc(NS(=O)(=O)c3ccc(Cl)cc3)c2O[C@H]1CN(C)Cc1ccc2c(c1)OCO2	-3
C[C@H]1CN([C@@H](C)CO)C(=O)Cc2cc(NC(=O)Cc3cn(C)c4ccccc34)ccc2O[C@H]1CN(C)Cc1ccccc1	8
CN1CCN(CC(=O)Nc2ccccc2[N+](=O)[O-])CC1	-12
C[C@@H]1CN([C@@H](C)CO)C(=O)c2cccc(NC(=O)C3CC3)c2O[C@@H]1CN(C)S(=O)(=O)c1cn(C)cn1	9
C[C@@H]1CCCCO[C@H](CN(C)C(=O)Nc2ccc(C(F)(F)F)cc2)[C@@H](C)CN([C@H](C)CO)C(=O)c2cc(NC(=O)CCC(F)(F)F)ccc2O1	8
O=C(CSc1nc2ccccc2c(=O)[nH]1)Nc1ccccc1Cl	19
Cc1ccc(-c2csc3ncnc(SCC(=O)c4ccc(F)cc4)c23)cc1	24

Random excerpt: 2 compounds from above, in no set order.
SMILES	NOMO-1 viab
O=C(COc1ccc(F)cc1)Nc1cc(Cl)ccc1C(=O)O	25
C[C@H]1CN([C@@H](C)CO)C(=O)c2cc(NC(=O)C3CCCCC3)ccc2O[C@H]1CN(C)C(=O)Nc1ccc(F)cc1	8

Structures shown so far that contain an aryl thioether with sulfur outside any ring (3):
SMILES	NOMO-1 viab
COc1ccccc1NC(=O)CSc1nc(Nc2ccccc2)nc(Nc2ccccc2)n1	26
O=C(CSc1nc2ccccc2c(=O)[nH]1)Nc1ccccc1Cl	19
Cc1ccc(-c2csc3ncnc(SCC(=O)c4ccc(F)cc4)c23)cc1	24

(next part)
SMILES	NOMO-1 viab
C[C@H]1CN([C@@H](C)CO)C(=O)c2cccc(NS(=O)(=O)c3ccc(Cl)cc3)c2O[C@@H]1CN(C)CC1CCCCC1	-13
O=C(CSc1ncn(-c2ccccc2)n1)Nc1ccc([N+](=O)[O-])cc1	39
COc1cc(NC(=S)NCc2ccc(S(N)(=O)=O)cc2)c(OC)cc1Cl	19
Cc1cc(C(=O)Nc2cccc3c2O[C@H](CN(C)C(=O)Nc2c(C)noc2C)[C@@H](C)CN([C@@H](C)CO)C3=O)n(C)n1	12
Cc1sc2ncnc(SCC(=O)Nc3ccccc3-c3ccccc3)c2c1C	34
O=C(O)CCc1nn2c3ccccc3n(CC(=O)c3ccccc3)c2nc1=O	4
C[C@@H]1CN([C@@H](C)CO)C(=O)c2cc(NC(=O)C3CCCCC3)ccc2O[C@H]1CN(C)Cc1ccc(Oc2ccccc2)cc1	100*
Cc1noc(C)c1NC(=O)Nc1ccc2c(c1)C(=O)N([C@H](C)CO)C[C@H](C)[C@H](CN(C)Cc1ccc(Cl)c(Cl)c1)O2	25
CC(C)NC(=O)N(C)C[C@@H]1Oc2ccc(NC(=O)Nc3ccccc3)cc2C(=O)N([C@H](C)CO)C[C@H]1C	-15
C[C@@H]1CCCCO[C@@H](CN(C)Cc2ccccc2)[C@@H](C)CN([C@H](C)CO)C(=O)c2cc(NS(=O)(=O)c3ccc(F)cc3)ccc2O1	22
CC(C)NC(=O)N(C)C[C@H]1Oc2ccc(NC(=O)Cc3ccccc3)cc2C(=O)N([C@@H](C)CO)C[C@@H]1C	-3
C[C@H]1CN([C@@H](C)CO)C(=O)c2cccc(NC(=O)c3ccncc3)c2O[C@H]1CN(C)Cc1ccc(C(=O)O)cc1	-2
Cc1cccc2c(C(=O)NCCc3ccc(S(N)(=O)=O)cc3)cc(-c3ccccc3Cl)nc12	20
Cc1noc(C)c1NC(=O)N(C)C[C@H]1Oc2c(NC(=O)c3ccncc3)cccc2C(=O)N([C@H](C)CO)C[C@@H]1C	-10
Cc1noc(C)c1NC(=O)N(C)C[C@H]1Oc2ccc(NC(=O)Cc3cn(C)c4ccccc34)cc2C(=O)N([C@@H](C)CO)C[C@@H]1C	15
COc1cc(OC)cc(-c2nc(N)c3c(C)c(-c4ccc(OC)c(OC)c4)sc3n2)c1	115*
C[C@@H]1CN([C@H](C)CO)C(=O)c2cc(NS(C)(=O)=O)ccc2O[C@@H]1CN(C)S(=O)(=O)c1ccc(F)cc1	-5
NC(N)=NC(N)=Nc1cc(-c2cccs2)[nH]n1	-2
COC(=O)COc1cccc(NC(=O)c2ccc(Cl)c(Cl)c2)c1	108*
C=C1C(=O)O[C@H]2C[C@@H](C)[C@@H]3CCC(=O)[C@@]3(C)C[C@H]12	117*
Cc1cc(C(F)(F)F)nc(SCC(=O)Nc2ccccc2C(F)(F)F)n1	-5
C[C@@H]1CN([C@H](C)CO)C(=O)c2cccc(NC(=O)Nc3ccc(C(F)(F)F)cc3)c2O[C@H]1CN(C)C(=O)NC1CCCCC1	75
Cc1ccc(-c2ccc(CCC(=O)O)n2-c2ccc(N(C)C)cc2)cc1	19
C[C@H](CO)N1C[C@H](C)[C@H](CN(C)Cc2ccc(-c3ccccc3)cc2)Oc2ccc(NC(=O)c3ccncc3)cc2CC1=O	37
O=C(c1cccc(Cl)c1)N(Cc1ccccc1)Cc1ccccc1	?
C[C@H]1CN([C@@H](C)CO)C(=O)Cc2cc(NC(=O)Nc3ccc(F)cc3)ccc2O[C@@H]1CN(C)CC1CC1	8
C[C@@H]1CN([C@@H](C)CO)C(=O)c2cccc(N(C)C)c2O[C@@H]1CN(C)C(=O)Nc1ccc(C(F)(F)F)cc1	22
CC(=O)OC[C@]12[C@H](OC(C)=O)[C@H](OC(C)=O)[C@@H]3[C@@H](OC(C)=O)[C@@]14O[C@@]3(C)COC(=O)c1cnccc1CC[C@H](C)C(=O)O[C@@]4(C)[C@@H](O)[C@H](O)[C@@H]2OC(C)=O	119*
Cc1ccc(S(=O)(=O)N(C)C[C@H]2Oc3ccc(NS(=O)(=O)c4ccc(Cl)cc4)cc3C(=O)N([C@H](C)CO)C[C@H]2C)cc1	35
C[C@H]1CN([C@@H](C)CO)C(=O)Cc2cc(NC(=O)Nc3ccc(C(F)(F)F)cc3)ccc2O[C@@H]1CN(C)C(=O)NC1CCCCC1	12
CSc1cccc(NC(=O)CSc2nnc(N)s2)c1	24
COc1ccc(S(=O)(=O)N(C)C[C@@H]2Oc3ccc(NS(=O)(=O)c4c(C)noc4C)cc3CC(=O)N([C@@H](C)CO)C[C@@H]2C)cc1	0
CCOc1c(O)ccc(C(c2c[nH]c3ccccc23)c2c[nH]c3ccccc23)c1[N+](=O)[O-]	48
C=C1[C@H]2CC[C@H](C(=O)O)[C@@]23CC[C@H](C3)C1(C)C	5
COc1ccc(S(=O)(=O)N(C)C[C@@H]2Oc3c(NS(=O)(=O)c4ccc(Cl)cc4)cccc3C(=O)N([C@@H](C)CO)C[C@@H]2C)cc1	23
C[C@H]1CN([C@@H](C)CO)C(=O)c2cc(NC(=O)Nc3ccccc3)ccc2O[C@@H]1CN(C)C(=O)Nc1ccc(F)cc1	6
C[C@H](CO)N1C[C@H](C)[C@@H](CN(C)Cc2ccc(C(F)(F)F)cc2)Oc2ccc(NC(=O)CCC(F)(F)F)cc2C1=O	22
CCC1(C)Cc2ccccc2-c2nc(NCCCO)n(-c3ccc(C)cc3)c(=O)c21 (configuration not stated)	45
O=C(O)CC1CCC(CC(O)/C=C\C/C=C\CCCCCO)O1 (configuration not stated)	117*
C[C@H](CO)N1C[C@H](C)[C@@H](CN(C)C(=O)Nc2ccccc2)Oc2ccc(NC(=O)Cc3ccccc3)cc2C1=O	7
Cn1nnc2cc(NC(=O)NCCO)ccc21	17
C[C@H]1CN([C@@H](C)CO)C(=O)Cc2cc(NC(=O)NC3CCCCC3)ccc2O[C@H]1CN(C)Cc1ccc(C(F)(F)F)cc1	34
O=C(CN1CCOCC1)Nc1ccc(S(=O)(=O)N2CCCC2)cc1	13
COC(=O)c1ccc(NC(=O)CSc2nnc(-c3cccc(Cl)c3)n2C)cc1	-12
COc1ccc(NC(=O)N(C)C[C@@H]2Oc3ccc(NC(=O)Nc4c(C)noc4C)cc3CC(=O)N([C@@H](C)CO)C[C@@H]2C)cc1	-10

A stretch of the results above:
SMILES	NOMO-1 viab
C[C@H](CO)N1C[C@H](C)[C@H](CN(C)CC2CCCCC2)Oc2ccc(NC(=O)Nc3ccc(C(F)(F)F)cc3)cc2CC1=O	128*
C[C@H]1CN([C@@H](C)CO)C(=O)c2cccc(NC(=O)Nc3ccc(F)cc3)c2O[C@H]1CN(C)Cc1ccc2c(c1)OCO2	30
COc1ccc(-c2noc(CCCN3C(=O)c4ccccc4C3=O)n2)cc1OC	21
Cc1noc(C)c1NC(=O)N(C)C[C@H]1Oc2ccc(NS(=O)(=O)c3ccc(Cl)cc3)cc2C(=O)N([C@@H](C)CO)C[C@H]1C	8
COc1ccccc1NC(=O)CSc1nc(Nc2ccccc2)nc(Nc2ccccc2)n1	26
O=C(COc1ccc(F)cc1)Nc1cc(Cl)ccc1C(=O)O	25

The list goes on.
SMILES	NOMO-1 viab
COc1ccc(NC(=O)Nc2ccc3c(c2)C(=O)N([C@H](C)CO)C[C@H](C)[C@H](CN(C)S(=O)(=O)c2ccccc2)O3)cc1	69
Cc1ccc(S(=O)(=O)N(C)C[C@@H]2Oc3c(NC(=O)NC4CCCCC4)cccc3C(=O)N([C@H](C)CO)C[C@@H]2C)cc1	91*
Cc1noc(C)c1S(=O)(=O)Nc1ccc2c(c1)CC(=O)N([C@@H](C)CO)C[C@H](C)[C@H](CN(C)C(=O)Nc1ccc(F)cc1)O2	-13
C[C@@H]1CN([C@H](C)CO)C(=O)c2cccc(NC(=O)C3CC3)c2O[C@H]1CN(C)Cc1ccc(-c2ccccc2)cc1	?
COc1ccc(CN(C)C[C@H]2Oc3ccc(NS(=O)(=O)c4ccc(C)cc4)cc3C(=O)N([C@H](C)CO)C[C@@H]2C)cc1	5
COc1ccc(Cl)cc1NC(=O)CN(c1c(C)cccc1C)S(C)(=O)=O	19
COc1ccc(S(=O)(=O)Nc2ccc3c(c2)CC(=O)N([C@@H](C)CO)C[C@@H](C)[C@@H](CN(C)Cc2ccccc2)O3)cc1	49
C[C@@H]1CN([C@@H](C)CO)C(=O)c2cc(NC(=O)CCC(F)(F)F)ccc2O[C@@H]1CN(C)S(=O)(=O)c1ccc(Cl)cc1	9
C[C@H]1CN([C@@H](C)CO)C(=O)c2cc(NC(=O)c3ccncc3)ccc2O[C@@H]1CN(C)S(=O)(=O)c1ccccc1	-6
COc1ccc(S(=O)(=O)Nc2ccc3c(c2)C(=O)N([C@@H](C)CO)C[C@@H](C)[C@@H](CN(C)Cc2ccc(C(F)(F)F)cc2)O3)cc1	115*
C[C@@H]1CN([C@H](C)CO)C(=O)c2cc(NC(=O)C3CC3)ccc2O[C@@H]1CN(C)Cc1ccc(Oc2ccccc2)cc1	19
COc1ccc(S(=O)(=O)Nc2ccc3c(c2)C(=O)N([C@@H](C)CO)C[C@@H](C)[C@@H](CN(C)Cc2ccncc2)O3)cc1	22
COc1ccccc1NC(=O)c1ccccc1NC(=O)CCc1ccccc1	-5
CC(C)OC(=O)CSc1nnc(-c2ccccc2F)n1-c1ccccc1	19
C[C@H](CO)N1C[C@H](C)[C@@H](CN(C)Cc2ccncc2)Oc2ccc(NC(=O)CCN3CCOCC3)cc2C1=O	21
Cc1sc2nc(SCc3nc(-c4ccccc4)no3)n(-c3ccccc3)c(=O)c2c1C	-2
COc1ccc2c(OC)c3ccoc3nc2c1OC	26
C[C@H]1CN([C@@H](C)CO)C(=O)c2cc(NS(=O)(=O)c3ccccc3)ccc2O[C@H]1CN(C)S(=O)(=O)c1ccc(Cl)cc1	-13
Cc1ncc([N+](=O)[O-])n1CC(=O)N(C)c1ccccc1	15
C[C@@H]1CN([C@H](C)CO)C(=O)c2cccc(NC(=O)Nc3ccc4c(c3)OCO4)c2O[C@H]1CN(C)Cc1ccc(-c2ccccc2)cc1	91*
C[C@H]1CN([C@@H](C)CO)C(=O)c2cc(NS(=O)(=O)c3ccccc3)ccc2O[C@H]1CN(C)C(=O)Nc1ccccc1	3
Cc1cc(OCc2nc3ccccc3s2)ccc1NC(=O)Nc1cccc(Cl)c1	107*
C[C@H]1CN([C@@H](C)CO)C(=O)Cc2cc(NC(=O)Nc3ccc(C(F)(F)F)cc3)ccc2O[C@H]1CN(C)S(=O)(=O)c1cccs1	128*
C[C@H]1CN([C@@H](C)CO)C(=O)Cc2cc(NC(=O)Nc3ccc(F)cc3)ccc2O[C@H]1CN(C)Cc1ccc2c(c1)OCO2	8
O=C(CSc1ncn[nH]1)c1c[nH]c2ccccc12	19
COC(=O)C1=CO[C@@H](O[C@@H]2O[C@H](CO)[C@@H](O)[C@H](O)[C@H]2O)[C@H]2[C@@H]1[C@H](OC(=O)/C=C\c1ccc(O)cc1)C[C@]2(C)OC(C)=O	8
O=C(CCc1nc(-c2ccccc2Cl)no1)Nc1cccc([N+](=O)[O-])c1	50
COc1ccc(-n2c(SCC(=O)Nc3ccc(Cl)cc3Cl)nnc2-c2ccncc2)cc1	8
